RE007 growth inh = qHTS Assay for Inhibitors of the HIV-1 protein Vpr; S. pombe RE007 Vpr strain, BacTiter-Glo ATP luminescence, 24 h; control for the full effect not named in the record; Potency, µM (top dose mostly 92.2 µM), without a hit: at the top dose activity change, negative = less growth; actives 0.21% (n = 360,000); active = well fitted falling curve with a large enough effect; inconclusive = small, poorly fitted or top-dose-only effect; inactive = no such curve, though single readings can be large or run the other way;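 also: % is scaled to controls: 0 for no effect and ±100 for the full control effect; nearly all actives have a fitted effect of over 50% in size; the assay follows cell death caused by Vpr and the record does not say whether a fall means rescue or toxicity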
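Fission yeast RE007 carrying one integrated HIV-1 vpr copy, seeded at OD 0.01 in PMG+AL medium with 23 nL pinned compound. Grown 24 h at 30 degrees; viability read by BacTiter-Glo luminescence after 5 min.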
StopGo reporter = High Throughput Screening for Foot and Mouth Disease Virus Antivirals; human cells with a luciferase reporter of 2A StopGo recoding; control for the full effect not named in the record; Potency, µM (top dose mostly 57.9 µM), for the others: at the highest dose signal change, negative = less light; actives 1.2% (n = 410,000); active = well fitted falling curve with a large enough effect; inconclusive = small, poorly fitted or top-dose-only effect; inactive = no such curve, though single readings can be large or run the other way; tested in HEK293T cells; also: % is scaled to controls: 0 for no effect and ±100 for the full control effect; nearly all actives have a fitted effect of over 45% in size; luciferase light after 4 h
SARS PLpro yeast = qHTS of Yeast-based Assay for SARS-CoV PLP | S. cerevisiae expressing SARS-CoV PLpro, growth rescue; control for the full effect not named in the record | Potency, µM (top dose mostly 32.9 µM), for inactives: top-dose activity, positive = growth rescue | actives 0.19% (n = 330,000); active means well fitted rising curve with a large enough effect; inconclusive means small, poorly fitted or top-dose-only effect; inactive means no such curve, though single readings can be large or run the other way; also: 0% is about no effect; nearly all actives have a fitted effect of over 55% in size; growth read by luminescence after 48 h
Numbers without * were called inactive; ? = inconclusive; [ ] = dose if it differs, or a comment. Potency is read from the fitted curve at half-maximal effect. This is a subset; the hit share may differ from the screen's.

Each structure is followed by: RE007 growth inh | StopGo reporter | SARS PLpro yeast
- O=C(NCCCN1CCCC1=O)C1CCN(S(=O)(=O)c2cc(C(F)(F)F)ccc2Cl)CC1
→ 1% | -25% | -3%
- COc1ccc(Cc2n[nH]c(=S)n2NC(=O)Nc2ccc(C)cc2)cc1
→ 27% | 71%[activator] | 0%
- CCOc1ccccc1N1CCN(C(=O)c2cc(S(=O)(=O)N(C)C)ccc2N2CCCC2)CC1
→ -2% | ? | -3%
- COc1cc(/C=C/C(=O)O)ccc1OS(=O)(=O)c1c(C)cc(C)cc1C
→ -5% | 0% | -3%
- CCOC(=O)C1CCN(C(=O)c2ccc(CNS(=O)(=O)c3ccc(OC)cc3)cc2)CC1
→ 10% | -2% | -2%
- O=C(CNC(=O)c1cc(Cl)cc([N+](=O)[O-])c1)NC1CC1
→ 11% | -8% | 1%
- Cc1ccc2c(CC(=O)NCC3(N4CCOCC4)CCCCC3)coc2c1C
→ -17% | -25% | 9%
- CCC(C)(C)C1CCC2(CC1)NC(=O)N(CC(=O)NCCOc1ccccc1)C2=O (stereo not given)
→ -9% | -19% | -4%
- Cc1ccc(S(=O)(=O)N2[C@@H](c3ccc(Br)cc3)C(C(=O)O)=CC[C@H]2c2cccc(Cl)c2)cc1
→ 5% | -15% | -2%
- CCN(C(=O)CSc1nnc(C)n1-c1cccc(C)c1)C1CCS(=O)(=O)C1 (stereo not given)
→ 3% | -3% | 3%
- O=C1c2ccccc2[C@@H]2C[C@@H](O)[C@H](Nc3ccccc3Cl)CCN12
→ 2% | -11% | 18%
- COC(=O)C1=CO[C@@H](O[C@@H]2O[C@H](CO)[C@@H](O)[C@H](O)[C@H]2O)C2C1C=C[C@@]2(O)CO (stereo not given in full)
→ 12% | -2% | -12%
- COc1ccc2[nH]c3c(c2c1)CCN1C(=O)C(CC(=O)NCC24CC5CC(CC(C5)C2)C4)C[C@H](C(=O)N2CCCCC2)[C@@]31C (stereo not given in full)
→ -7% | 0% | 3%
- O=C(Oc1coc(CSc2ncccn2)cc1=O)c1ccccc1[N+](=O)[O-]
→ -30% | 5% | 0%
- O=C1OC(C(=O)NCc2ccccc2)Cc2ccccc21 (stereo not given)
→ 2% | 12% | 2%
- CSc1ccccc1NC(=O)CSc1n[nH]c(C)c1[N+](=O)[O-]
→ 9% | 31%[activator] | 1%
- O=C(/C=C/c1ccccc1[N+](=O)[O-])Nc1cccc(S(=O)(=O)NC2=NCCCCC2)c1
→ 1% | 3% | 0%
- CN(C)S(=O)(=O)c1ccc(N2CCCC2)c(C(=O)NCC2CCCCC2)c1
→ 9% | -14% | 0%
- CC(=NNC(=O)c1cccc(S(=O)(=O)N2CCOCC2)c1)c1ccccc1
→ -8% | 49%[activator] | -8%
- COC(=O)C1=CO[C@@H](O[C@@H]2O[C@H](CO)[C@@H](O)[C@H](O)[C@H]2O)[C@H]2[C@@H]1C(=O)C[C@@H]2C
→ -3% | -27% | 1%
- O=C(CSc1nnc(-c2ccccc2F)o1)NC(=O)Cc1ccccc1
→ -5% | -6% | 3%
- CN(Cc1ccccc1)C(=O)c1ccc(NC(=O)Cc2cccc(NC(=O)C3CCCN(C(=O)C4CCC4)C3)c2)cc1 (stereo not given)
→ 11% | 3% | 5%
- CCC/C(=C1/c2ccccc2C(=O)N1c1ccccc1)c1ccc(O[C@@H]2CCCCO2)cc1
→ 34% | -27% | 4%
- Cc1cc(C)n(CC(=O)NNC(=O)CC(C)c2ccccc2)n1 (stereo not given)
→ -12% | -6% | 0%
- Cc1c(C(=O)Nc2ccc3nc(N4CCOCC4)sc3c2)oc2ccccc12
→ ? | ? | -4%
- Fc1ccc(/C=N/N2CCOCC2)c(F)c1
→ 0% | 35%[activator] | 1%
- COc1cc(CC(=O)OCC(=O)NCc2ccco2)cc(OC)c1OC
→ -6% | -9% | 0%
- Cc1ccccc1S(=O)(=O)/N=C(/Nc1nc2ccccc2s1)c1ccccc1
→ -9% | 66%[activator] | -3%
- Cc1nnc2ccc(-c3ccc(NS(=O)(=O)c4ccc(Cl)s4)cc3)nn12
→ 2% | -1% | 6%
- CN(C(=O)COC(=O)CSCc1cccc(Cl)c1)c1c(N)n(Cc2ccccc2)c(=O)[nH]c1=O
→ 2% | -6% | 0%
- NC(=O)c1ccc(SCC(=O)OCC(=O)NC2CCCCCCC2)c([N+](=O)[O-])c1
→ -14% | -19% | 0%
- CC1CCCC(NC(=O)COC(=O)/C=C/c2ccco2)C1C (stereo not given)
→ -7% | -11% | -2%
- COc1ccc2c(C(=O)c3ccc(Cl)cc3)n(CCCC(N)=O)[n+]([O-])c2c1
→ 3% | 14% | 3%
- N#Cc1c(SCC(=O)Nc2nc3ccccc3s2)sc2c(O)cc(=O)[nH]c12
→ -9% | 5% | 5%
- CCC(C)NC(=O)CSc1ccc(S(=O)(=O)N2CCN(Cc3ccccc3)CC2)cn1 (stereo not given)
→ -5% | ? | 1%
- Cc1ccc(NC(=O)CCN2C(=O)NC3(CCCC3)C2=O)cc1S(=O)(=O)N1CCOCC1
→ -2% | -12% | -7%
- CN(c1ccccc1)S(=O)(=O)c1ccc(C(=O)N2CCN(c3ccccc3Cl)CC2)cc1
→ 4% | ? | 1%
- CC[C@]12c3[nH]c4ccccc4c3CCN1C(=O)C(CC(=O)NCCCN(C)C)C[C@@H]2C(=O)N1CCN(C(=O)c2ccco2)CC1 (stereo not given in full)
→ -13% | -19% | -7%
- O=C1C(Cc2ccccc2)Nc2ncnc(N3CCCCC3)c2N1Cc1ccc(Cl)cc1 (stereo not given)
→ -3% | -12% | -4%
- Cc1ccc2nc(NC(=O)CSCC(=O)Nc3cc(C)on3)sc2c1
→ 0% | 51%[activator] | -4%
- COc1ccc(CC(=O)NNC(=O)CN(C)S(=O)(=O)c2ccc(Cl)cc2)cc1OC
→ 11% | -7% | 3%
- Fc1ccccc1N1CCN(c2nnnn2-c2ccccc2)CC1
→ -1% | -13% | -2%
- CCOC(=O)C1=C(C)N(C[C@@H]2CC[C@@H](Cc3ccc(-c4ccccc4)cc3)O2)C(=O)NC1c1cccc2ccccc12 (stereo not given in full)
→ -4% | -14% | 17%
- O=C(COc1ccccc1[N+](=O)[O-])Nc1ccc2c(c1)CCC2
→ -9% | 69%[activator] | 5%
- COc1ccc(S(=O)(=O)N2CCOCC2)cc1NC(=O)CSc1nnc(C2CC2)n1C1CC1
→ 8% | -2% | -9%
- COC(=O)[C@]1(C)N[C@H](CN(C)S(=O)(=O)c2ccccc2)[C@@H]2C(=O)N(C)C(=O)[C@@H]21
→ 7% | -23% | 3%
- Cc1cccc(C(=O)NCC(=O)N2CC(=O)Nc3ccccc32)c1
→ 5% | -3% | -1%
- O=[N+]([O-])c1ccc(-n2nnnc2-c2ccccc2)cc1
→ -5% | -4% | -4%
- CCC1Nc2ncnc(N3CCN(c4ccccc4)CC3)c2N(Cc2ccc(OC)cc2)C1=O (stereo not given)
→ 10% | -17% | 6%
- Cc1cccc(C)c1Nc1nnc(SCC(=O)NCCCN2CCCC2=O)s1
→ 12% | -6% | 2%
- CCOC(=O)[C@H]1[C@H]2COc3ccc(OC)cc3[C@@H]2N2C(=O)CN(Cc3ccc(Cl)cc3)C(=O)[C@@]12C
→ 0% | 0% | 1%
- CC1(C)CC(=O)C=C(c2ccc(Cl)c(C(F)(F)F)c2)C1
→ -11% | -23% | 4%
- COc1ccc(C2=NOC(Cn3nc(C(=O)NCc4cccc(Br)c4)cc3-c3ccccc3)C2)cc1 (stereo not given)
→ -13% | -18% | -7%
- CN1CCN(C(=S)c2cn(Cc3ccc(Br)cc3)c3ccccc23)CC1
→ 11% | 19% | 0%
- O=C1C[C@H](NC(=O)OCc2ccccc2)CO1
→ 5% | 0% | -1%
- Cc1cc(C(=O)CN2C(=O)C(=O)N(Cc3ccccc3)C2=O)c(C)n1Cc1ccc(F)cc1
→ 9% | 0% | -1%
- COCCNC(=O)CSc1c2c(nc3ccc(Cl)cc13)CCCC2
→ 5% | ? | 5%
- COc1cc2cnc(-c3ccccc3)c(-c3ccc(C#N)cc3)c2cc1OC
→ -5% | -27% | -12%
- CCOC(=O)c1c(C)[nH]c(C)c1C(=O)COC(=O)c1ccc([N+](=O)[O-])s1
→ 6% | -4% | 7%
- Cc1ccc(S(=O)(=O)Nc2ccc3cn[nH]c3c2)c(C)c1
→ 1% | 24% | -1%

The listing continues:
Each structure is followed by: RE007 growth inh | StopGo reporter | SARS PLpro yeast
- CN(CC(=O)Nc1ccccc1Cl)C(=O)COC(=O)c1ccc([N+](=O)[O-])s1
→ -11% | -18% | -25%
- C=CC[C@@H](CC(=O)N[C@@H](CO)Cc1ccccc1)C(=O)N[C@@H](COC(=O)[C@@H](CC=C)CC(=O)OC(C)(C)C)Cc1c[nH]c2ccccc12
→ -1% | -9% | 4%
- COC(=O)C1=C(c2cccc(C#N)c2)C[C@@H]2CC[C@H]1N2C(=O)NC(C)C
→ 1% | -10% | 1%
- COC(=O)[C@@]1(C)[C@H]2C(=O)N(Cc3ccccc3)C(=O)[C@H]2[C@H]2CN=C(SCC3CC3)N21
→ -8% | -15% | 6%
- CCN(C[C@H]1N[C@@](CC)(C(=O)OC)[C@H]2C(=O)N(Cc3ccccc3)C(=O)[C@@H]12)C(=O)Nc1ccc(C(F)(F)F)cc1
→ -5% | 5% | -5%
- O=C(C[C@H]1C[C@H](C(=O)N2CCOCC2)[C@@]2(CCC3CCCC3)c3[nH]c4cc(-c5ccco5)ccc4c3CCN2C1=O)NCC12CC3CC(CC(C3)C1)C2
→ 4% | -3% | 5%
- CC(C)CC(=O)N=Nc1c(O)[nH]c2ccccc12
→ -6% | 39%[activator] | -2%
- CCN(C(=O)COC(=O)CNC(=O)c1ccccc1C)C1=CCCCC1
→ 9% | -9% | 1%
- O=C(COC(=O)Cn1cc(C(F)(F)F)ccc1=O)Nc1ccccc1
→ -13% | -10% | -2%
- Cc1cccc(Oc2ccc(NC(=O)C3=CC=CN4CCS(=O)(=O)N=C34)cc2)c1
→ ? | -28% | 1%
- Cc1noc(C)c1NC(=O)Nc1cccc2c1O[C@H](CN(C)C(=O)NC1CCCCC1)[C@@H](C)CN([C@H](C)CO)C2=O
→ -14% | 41%[activator] | -6%
- CS(=O)(=O)c1ccc(Cl)c(NC(=O)CCN2C(=O)C3CC=CCC3C2=O)c1 (stereo not given)
→ -4% | -16% | 4%
- C#CCOCCOCCOCCNc1nc(N2CCOCC2)nc(N2CCN(C(=O)[C@H](CCCN=C(N)N)n3cc(C(N)[C@@H](C)CC)nn3)CC2)n1 (stereo not given in full)
→ -2% | -14% | 4%
- COc1cc([C@@H]2CC=C(C(=O)O)[C@H](c3ccccc3F)N2S(=O)(=O)c2ccc(C)cc2)cc(OC)c1OC
→ 2% | -5% | -2%
- Cc1ccc(NC(=O)CN(C)C(=O)CSc2ccc3c(c2)OCCO3)cc1
→ -12% | 11% | 6%
- CN(CC(=O)Nc1ccc(Cl)cc1)C(=O)c1ccc(N2CCCC2=O)cc1
→ 32% | 15% | -1%
- CCCCn1c(N)c(N(CCC(C)C)C(=O)C2=NN(c3ccccc3)C(=O)CC2)c(=O)[nH]c1=O
→ -3% | -13% | -9%
- CCN(C[C@H]1N[C@@](CC)(C(=O)OC)[C@H]2C(=O)N(Cc3ccccc3)C(=O)[C@@H]12)C(=O)c1ccccc1
→ 11% | -13% | 1%
- CCOC(=O)c1cc(-c2ccc(OC)cc2)n(CCC(=O)NCCN2CCC(C)CC2)c1C
→ -10% | 14% | -3%
- COC(=O)C1=C(NC(=O)c2ccccc2C)CCS1
→ ? | -13% | -4%
- C#CCOCCOCCOCCNc1nc(N2CCN(C(=O)CCCCCCCCCCNC(=O)Cn3cc(C[C@@H](C)O)nn3)CC2)nc(N2CCN(C(=O)CCCCCCCCCCNC(=O)[C@H](CCCN=C(N)N)n3cc(C[C@@H](C)CC)nn3)CC2)n1
→ -3% | ? | 3%
- Cc1cnc(C(=O)NC(C)CCc2ccccc2)cn1 (stereo not given)
→ 25% | 3% | 1%
- CCCCC(=O)N/N=C(C)/C=C/c1ccccc1F
→ -14% | 27% | -3%

Shown with each value named: 3 of the compounds above
CC(=NNC(=O)c1cccc(S(=O)(=O)N2CCOCC2)c1)c1ccccc1
  RE007 growth inh: -8%; StopGo reporter: 49%[activator]; SARS PLpro yeast: -8%

COC(=O)C1=CO[C@@H](O[C@@H]2O[C@H](CO)[C@@H](O)[C@H](O)[C@H]2O)[C@H]2[C@@H]1C(=O)C[C@@H]2C
  RE007 growth inh: -3%; StopGo reporter: -27%; SARS PLpro yeast: 1%

O=C(CSc1nnc(-c2ccccc2F)o1)NC(=O)Cc1ccccc1
  RE007 growth inh: -5%; StopGo reporter: -6%; SARS PLpro yeast: 3%

Screening data (PubChem BioAssay)
